Screening results: PubChem BioAssay, Broad Institute
Hedgehog cleavage = Hh protein inhibition, biochemical readout – plate reader, single concentration, primary screen (AID 588832); Biochemical plate reader assay, Hedgehog inhibition; active compounds read high; inhibition, % at 30.3 µM; 8,000 tested, under 10 active; in the data active means inhibition from about 57%;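 further: 0% = neutral control wells and 100% = positive control wells; cholesterol-driven self-cleavage of fly hedgehog protein by fluorescence polarization; read one hour after cholesterol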
An asterisk follows results filed as active. The list is partial (hit frequency here may not be typical).

SMILES	Hedgehog cleavage
COc1ccccc1CCNC(=O)CCC(=O)N1CC2C[C@@H](C1)Cn1c2cccc1=O	5
COC1=CC(=O)OC(CCc2ccc3c(c2)OCO3)C1 (configuration not stated)	11
Cc1ccc2[nH]c3c(c2c1)CN(C(=O)CN1C[C@H]2C[C@@H](C1)c1cccc(=O)n1C2)CC3	-2
O=C(COc1ccc2c3c(c(=O)oc2c1)CCC3)N1C[C@H]2C[C@@H](C1)c1cccc(=O)n1C2	0
CC(C)(Cl)[N+](=O)[O-]	4
BrCCc1ccccc1	4
C/C1=C\[C@@H](C)C/C=C/[C@H]2[C@@H]3O[C@]3(C)[C@@H](C)[C@H]3[C@H](Cc4c[nH]c5ccccc45)NC(=O)[C@]32C(=O)/C=C/C(=O)[C@@H]1O	3
Cc1cc(-c2ccc(N)c(C)c2)ccc1N	7
C=C(C)C(Cc1c(OC)ccc(C(=O)/C=C/c2ccc(O)cc2)c1O)OO (configuration not stated)	2
CC1OC(OC2CC(O)C3(CO)C4C(O)CC5(C)C(C6=CC(=O)OC6)CCC5(O)C4CCC3(O)C2)C(O)C(O)C1O (configuration not stated)	5
Cc1ccc(NC(=O)[C@@H](NC(=O)N2C[C@H]3C[C@@H](C2)c2cccc(=O)n2C3)C(C)C)cc1	5
O=C(CCC(=O)N1CC2C[C@@H](C1)Cn1c2cccc1=O)NCCc1ccccc1F	0
COc1cccc(NC(=O)[C@@H](NC(=O)N2C[C@H]3C[C@@H](C2)c2cccc(=O)n2C3)C(C)C)c1	5
Oc1c(Br)c(Br)c(Br)c(Br)c1Br	2
COc1cc2oc(=O)c(CC(=O)N3C[C@H]4C[C@@H](C3)c3cccc(=O)n3C4)c(C)c2cc1Cl	7
Nc1ccccc1Cl	5
C[C@H](NC(=O)N1C[C@H]2C[C@@H](C1)c1cccc(=O)n1C2)C(=O)Nc1ccccc1F	5
NCCc1c[nH]c2ccccc12	5
COc1cc(C2c3cc(O)c(OC)cc3CC3C(=O)OCC32)ccc1O (configuration not stated)	7
COC(=O)C1=COC(C)C2CN3CCC4(C(=O)Nc5ccccc54)C3CC12 (configuration not stated)	5
CN(C)Cc1c[nH]c2ccccc12	7
COc1c(C=C2C(=O)NC(=O)NC2=O)c(CCN(C)C(=O)c2ccccc2)cc2c1OCO2	5
CC[C@H]1CC2CN3CCc4c([nH]c5ccccc45)C(C(=O)OC)(C2)C13 (some centres not stated)	7
COC(C)(C)CCCC(C)C/C=C/C(C)=C/C(=O)OC(C)C (configuration not stated)	4
COC[C@]12CN(C)C3C4[C@H](OC)[C@H]1C3([C@@H](OC)C[C@H]2O)[C@@H]1C[C@@]2(O)[C@H](OC(=O)c3ccccc3)[C@@H]1[C@]4(OC(C)=O)[C@@H](O)[C@@H]2OC	-2
C=CC1CN2CCC1CC2C(O)c1ccnc2ccccc12 (configuration not stated)	11
C1CCC2CCCCC2C1 (configuration not stated)	7
Cc1cccc(NC(=O)[C@@H](NC(=O)N2C[C@H]3C[C@@H](C2)c2cccc(=O)n2C3)C(C)C)c1	0
CNCCc1ccc(OC)c(OC)c1	5
Cc1ccc(N)cc1C	5
CCN1C[C@]2(COC)CC[C@H](OC)[C@@]34C5C[C@H]6C(=O)C5[C@](O)(C[C@H]6OC)[C@@](O)(C(OC)C23)[C@@H]14 (some centres not stated)	7
O=C(O)c1ccccc1NC(=O)N1C[C@H]2C[C@@H](C1)c1cccc(=O)n1C2	7
CC(C)c1ccc(NC(=O)N2C[C@H]3C[C@@H](C2)c2cccc(=O)n2C3)cc1	7
Cc1nccc2c1[nH]c1ccc(Br)cc12	-2
COc1ccc(C(=O)O)cc1OC	7
COc1cc(C(=O)N2C[C@H]3C[C@@H](C2)c2cccc(=O)n2C3)cc(OC)c1OC	0
COc1cc(C2c3cc4c(cc3CC3COC(=O)C32)OCO4)cc(OC)c1OC (configuration not stated)	7
c1ccc2c(c1)-c1cccc3cccc-2c13	0
CCN1CCN(C(c2cccs2)C(C)NC(=O)Oc2ccccc2)CC1 (configuration not stated)	7
N#C/C=C/C#N	4
CCOP(=S)(OCC)SCCSCC	4
O=C(NC(=S)N1C[C@H]2C[C@H](C1)c1cccc(=O)n1C2)c1ccc(F)cc1	5
COc1cc(C(=O)O)cc(OC)c1OC	5
Oc1cc(Cl)ccc1Oc1ccc(Cl)cc1Cl	9
c1ccc(OCC2CO2)cc1 (configuration not stated)	5
O=C(CCC(=O)N1C[C@H]2C[C@@H](C1)c1cccc(=O)n1C2)NCc1cccc(C(F)(F)F)c1	5
Oc1ccc(Cl)c(Cl)c1Cl	2
C=C1[C@H]2C[C@H]3[C@H]4N5C[C@]6(C)CCC[C@]47[C@H]([C@H]2O)[C@]3(C[C@]5(O)[C@H]67)[C@@H]1O	9
O=S(=O)(c1ccc(Cl)cc1)c1ccc(Cl)cc1	9
COc1ccc2c(c1)C13CCN4CC5=CCOC6CC(=O)N2C1C6C5CC43 (configuration not stated)	5

Reprinted at random: 2 records from the list, in no set order.
SMILES	Hedgehog cleavage
Oc1cc(Cl)ccc1Oc1ccc(Cl)cc1Cl	9
c1ccc(OCC2CO2)cc1 (configuration not stated)	5

The results go on:
SMILES	Hedgehog cleavage
ClC(Cl)(Cl)c1ccccc1	11
CN(C)N=O	4
Cc1ccc(O)c(C)c1	5
CC(=O)O[C@@]12CO[C@@H]1C[C@H](O)[C@@]1(C)C(=O)[C@H](O)C3=C(C)[C@@H](OC(=O)[C@H](O)[C@@H](NC(=O)c4ccccc4)c4ccccc4)C[C@@](O)([C@@H](OC(=O)c4ccccc4)C12)C3(C)C (some centres not stated)	5
CC12CCC(O)CC1CCC1C2CCC2(C)C(C(=O)CO)CCC12 (configuration not stated)	9
CC(=O)O[C@H]1C(=O)[C@@]2(C)C([C@H](OC(=O)c3ccccc3)[C@]3(O)C[C@H](OC(=O)[C@H](O)[C@@H](NC(=O)Cc4ccccc4)c4ccccc4)C(C)=C1C3(C)C)[C@]1(OC(C)=O)CO[C@@H]1C[C@@H]2O (some centres not stated)	0
N#C/C(N)=C(/N)C#N	5
COc1ccc2c(C)c(CCC(=O)N3C[C@H]4C[C@@H](C3)c3cccc(=O)n3C4)c(=O)oc2c1	7
CCC(C)/C=C(C)/C=C/C1=CC2=C(Cl)C(=O)C(C)(OC(C)=O)C(=O)C2=CO1 (configuration not stated)	5
Cc1c(Br)c(=O)oc2cc(OCC(=O)N3C[C@H]4C[C@@H](C3)c3cccc(=O)n3C4)ccc12	3
CC[C@@H](CO)C1CC2NC3CC4(c5ccccc5N(C)[C@@H]24)C(O)C31 (some centres not stated)	3
C=C1C(=O)OC2CCN3CC=C(COC(=O)C(C)(O)C4(CO4)C1C)C23 (configuration not stated)	5
COc1cc(OC)c(OC)cc1C=O	5
COCCCN=Cc1c(O)[nH]c(=S)[nH]c1=O	13
O=C(CCC(=O)N1CC2C[C@@H](C1)Cn1c2cccc1=O)NCCc1ccccc1	2
NC(=O)c1cn(C2OC(CO)C(O)C2O)c2ncnc(N)c12 (configuration not stated)	3
CCN1C[C@]2(CO)CC[C@H](OC)[C@@]34C5C[C@H]6[C@H](OC)C5[C@](O)(C[C@H]6OC)[C@@H](C(OC)C23)[C@@H]14 (some centres not stated)	7
c1ccc(Nc2ccc(Nc3ccccc3)cc2)cc1	-2
Cc1cc(OCC(=O)N2C[C@H]3C[C@@H](C2)c2cccc(=O)n2C3)c2c(C)cc(=O)oc2c1	2
C/C=C1/CN2C3CC1C(CO)(C(=O)OC)C2Cc1c3n(C)c2ccccc12 (configuration not stated)	2
COc1cc(OC)cc(C(=O)NC(=S)N2C[C@H]3C[C@H](C2)c2cccc(=O)n2C3)c1	-2
O=C1CC2OCC=C3CN4CCC56c7ccccc7N1C5C2C3CC46O (configuration not stated)	9
COc1cccc(NC(=O)CN2CC(c3ccccc3)CC2=O)c1 (configuration not stated)	11

Structural class, those above with a carbonyl joined to an NH by a bond outside any ring (17)
SMILES	Hedgehog cleavage
COc1ccccc1CCNC(=O)CCC(=O)N1CC2C[C@@H](C1)Cn1c2cccc1=O	5
Cc1ccc(NC(=O)[C@@H](NC(=O)N2C[C@H]3C[C@@H](C2)c2cccc(=O)n2C3)C(C)C)cc1	5
O=C(CCC(=O)N1CC2C[C@@H](C1)Cn1c2cccc1=O)NCCc1ccccc1F	0
COc1cccc(NC(=O)[C@@H](NC(=O)N2C[C@H]3C[C@@H](C2)c2cccc(=O)n2C3)C(C)C)c1	5
C[C@H](NC(=O)N1C[C@H]2C[C@@H](C1)c1cccc(=O)n1C2)C(=O)Nc1ccccc1F	5
Cc1cccc(NC(=O)[C@@H](NC(=O)N2C[C@H]3C[C@@H](C2)c2cccc(=O)n2C3)C(C)C)c1	0
O=C(O)c1ccccc1NC(=O)N1C[C@H]2C[C@@H](C1)c1cccc(=O)n1C2	7
CC(C)c1ccc(NC(=O)N2C[C@H]3C[C@@H](C2)c2cccc(=O)n2C3)cc1	7
CCN1CCN(C(c2cccs2)C(C)NC(=O)Oc2ccccc2)CC1 (configuration not stated)	7
O=C(NC(=S)N1C[C@H]2C[C@H](C1)c1cccc(=O)n1C2)c1ccc(F)cc1	5
O=C(CCC(=O)N1C[C@H]2C[C@@H](C1)c1cccc(=O)n1C2)NCc1cccc(C(F)(F)F)c1	5
CC(=O)O[C@@]12CO[C@@H]1C[C@H](O)[C@@]1(C)C(=O)[C@H](O)C3=C(C)[C@@H](OC(=O)[C@H](O)[C@@H](NC(=O)c4ccccc4)c4ccccc4)C[C@@](O)([C@@H](OC(=O)c4ccccc4)C12)C3(C)C (some centres not stated)	5
CC(=O)O[C@H]1C(=O)[C@@]2(C)C([C@H](OC(=O)c3ccccc3)[C@]3(O)C[C@H](OC(=O)[C@H](O)[C@@H](NC(=O)Cc4ccccc4)c4ccccc4)C(C)=C1C3(C)C)[C@]1(OC(C)=O)CO[C@@H]1C[C@@H]2O (some centres not stated)	0
O=C(CCC(=O)N1CC2C[C@@H](C1)Cn1c2cccc1=O)NCCc1ccccc1	2
NC(=O)c1cn(C2OC(CO)C(O)C2O)c2ncnc(N)c12 (configuration not stated)	3
COc1cc(OC)cc(C(=O)NC(=S)N2C[C@H]3C[C@H](C2)c2cccc(=O)n2C3)c1	-2
COc1cccc(NC(=O)CN2CC(c3ccccc3)CC2=O)c1 (configuration not stated)	11
